Bioassay records deposited in PubChem by Southern Research Institute.
Mtb growth: Mycobacterium tuberculosis H37Rv growth inhibition, cell based, confirmatory dose response (AID 1949) | inhibition, % at 10 µg/mL, or IC50 in µg/mL where a hit was titrated | hit rate 1.6% among 100,000 | most inactive calls were filed without a number and no value below 0 was filed;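 active means confirmed in a dose series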;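 further: bacteria grown 7 days with compound before Alamar blue readout; 0% = untreated bacteria and 100% = reference antibiotic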
The depositor's hits bear a star; i = inactive. The list is partial; rates above refer to the full screens.

SMILES	Mtb growth
CCOc1ccccc1N(CC(=O)Nc1ccc(C)cc1)S(C)(=O)=O	1.8%
O=C(Nc1n[nH]c(-c2ccncc2)n1)c1ccccc1	i
CCOC(=O)c1c(CC(C)C)csc1NC(=O)c1cc(OC)c(OC)c(OC)c1	2.7%
S=C(NCc1ccco1)Nc1cc(-c2ccccc2)[nH]n1	4.6%
O=C(CN1C(=O)c2ccccc2C1=O)Nc1ccc2ccccc2c1	i
COc1cc(Br)c(C2C(C(=O)N3CCOCC3)=C(C)NC3=C2C(=O)CCC3)cc1OC (stereo not given)	i
CCn1c(C)c(/C=C/c2nc3ccccc3c(=O)n2CCCO)c2ccccc21	i
COc1cccc(CN2CCC(C(=O)NCCc3ccccc3)CC2)c1	i
Cc1ccc([N+](=O)[O-])cc1NC(=O)Cn1cnc2ccccc2c1=O	i
COc1cccc(CCNCc2ccc(F)c(F)c2)c1	2.3%
CCOc1ccc(C(=O)N2CCCCC2)cc1OC	i
c1ccc(-c2nc3ccc4ncccc4c3nc2-c2ccccc2)cc1	3.2%
CCOc1cc(C2CC(=O)NC(C)=C2C(=O)OC)cc(Br)c1OC (stereo not given)	i
CCOc1cc(CO)cc(Br)c1OCc1ccc([N+](=O)[O-])cc1	i
CN(C)c1cccc(C(=O)NNC(=S)NC2CCCC2)c1	i
CNC(=O)CCC(=O)Nc1ccc(C(=O)OC)cc1	i
O=c1c2c3c(sc2nc(SCc2ccncc2)n1-c1ccccc1)CCCC3	9.2%
Cc1ccc(CN(CC(=O)NC2CCCC2)S(=O)(=O)c2ccc(Cl)cc2)cc1	i
O=C(CSc1nnc(-c2ccc(Br)cc2)o1)Nc1ccc(Cl)c(Cl)c1	0.2%
O=C1C2CCCC1CC(C(=O)N1CCN(C(c3ccccc3)c3ccccc3)CC1)C2 (stereo not given)	i
CCc1ccc(C2CC(c3ccco3)=NN2S(C)(=O)=O)cc1 (stereo not given)	0.9%
O=C(Nc1ccc2c(c1)C(=O)N(C1CCCCC1)C2=O)C1CCCO1 (stereo not given)	0.4%
COC(=O)c1sc(NC(=O)c2cccc(OC)c2OC)c(C#N)c1C	i
CC(C)C(=O)Nc1cccc(C(=O)Nc2ccc(F)c(Cl)c2)c1	2.5%
Cc1ccc(C)c(OCCCC(=O)Nc2nc3ccccc3s2)c1	i
Cc1cccc(C)c1OCC(=O)N/N=C/c1ccc(O)c([N+](=O)[O-])c1	0.36µg/mL*
Cc1cc(C)nc(NC(=O)NC2CCCCC2)c1	i
FC(F)(F)c1cc(-c2ccc(Cl)cc2)nc(NCc2cccnc2)n1	i
CNc1nsc(C(=O)c2ccc(OC)cc2)c1N	i
CCc1cccc2c(C(C)=O)cn(CC(N)=O)c12	i

Part of the list above, bar-delimited.
Structure | Mtb growth
Cc1ccc(CN(CC(=O)NC2CCCC2)S(=O)(=O)c2ccc(Cl)cc2)cc1 | i
O=C(CSc1nnc(-c2ccc(Br)cc2)o1)Nc1ccc(Cl)c(Cl)c1 | 0.2%
O=C1C2CCCC1CC(C(=O)N1CCN(C(c3ccccc3)c3ccccc3)CC1)C2 (stereo not given) | i

2 consecutive compounds out of the list so far:
SMILES	Mtb growth
O=c1c2c3c(sc2nc(SCc2ccncc2)n1-c1ccccc1)CCCC3	9.2%
Cc1ccc(CN(CC(=O)NC2CCCC2)S(=O)(=O)c2ccc(Cl)cc2)cc1	i

Rewritten with each value named: entries from further up
O=C(CN1C(=O)c2ccccc2C1=O)Nc1ccc2ccccc2c1
  Mtb growth: i
O=C(Nc1n[nH]c(-c2ccncc2)n1)c1ccccc1
  Mtb growth: i
CCOc1ccc(C(=O)N2CCCCC2)cc1OC
  Mtb growth: i
CN(C)c1cccc(C(=O)NNC(=S)NC2CCCC2)c1
  Mtb growth: i

Retrieved one by one from the entries so far, six records:
SMILES	Mtb growth
CC(C)C(=O)Nc1cccc(C(=O)Nc2ccc(F)c(Cl)c2)c1	2.5%
O=c1c2c3c(sc2nc(SCc2ccncc2)n1-c1ccccc1)CCCC3	9.2%
Cc1cc(C)nc(NC(=O)NC2CCCCC2)c1	i
FC(F)(F)c1cc(-c2ccc(Cl)cc2)nc(NCc2cccnc2)n1	i
O=C(CSc1nnc(-c2ccc(Br)cc2)o1)Nc1ccc(Cl)c(Cl)c1	0.2%
CCc1ccc(C2CC(c3ccco3)=NN2S(C)(=O)=O)cc1 (stereo not given)	0.9%

New compounds follow
SMILES	Mtb growth
COc1cccc(-n2cnc3scc(-c4ccccc4)c3c2=O)c1	i
CCOC(=O)c1ccc(Cn2cnc3ccccc3c2=O)cc1	i
CCC(CC)C(=O)N1CCN(c2ccc(Cl)cc2)CC1	i
Cc1ncc([N+](=O)[O-])n1CC(=O)Nc1cccc2ccccc12	i
NS(=O)(=O)c1ccc(CCNC(=S)Nc2ccc(S(N)(=O)=O)cc2)cc1	i
O=C(O)c1ccc(NCc2c(Cl)cccc2Cl)cc1	i
CCOC(=O)Cc1csc2nc(C(F)(F)F)nc(=O)n12	6.2%
CC(=O)N(C)c1ccc(NC(=O)Cc2cccc3ccccc23)cc1	i
CCOc1ccc(N2C(=O)C(C)SC23C(=O)Nc2ccccc23)cc1 (stereo not given)	i
COc1cccc(NC(=S)Nc2cc(Cl)ccc2Oc2ccccc2)c1	i
N#Cc1ccc(CSc2ccccn2)c(Cl)c1	2.9%
O=C(NC1CCCC1)c1ccc(I)cc1	i
COC(=O)c1cc(OC)c(OC)cc1NC(=O)C1CCC(=O)N1S(=O)(=O)c1ccc(C)cc1 (stereo not given)	i
CCCSC1=C(C#N)C(c2cccc(OC)c2)CC(=O)N1 (stereo not given)	i
O=C(c1ccco1)N1CCN(C2CC(=O)N(c3ccc(Cl)cc3)C2=O)CC1 (stereo not given)	i
Cc1cc(C)c(NS(=O)(=O)c2cc(C(C)(C)C)cc(C)c2C)c(C)c1	41.0%
COc1ccc(S(=O)(=O)Nc2cccc(C(F)(F)F)c2)cc1C	1.9%
CCc1ccc(NC(=O)CSc2nnc(C)n2Cc2ccccc2)cc1	i
COc1ccc(-c2csc(NC(=O)COc3ccccc3Cl)n2)cc1	i
Cc1ccc(N(CC(=O)Nc2c(C)cccc2C)S(C)(=O)=O)c(C)c1	i
CCOc1ccc(OCc2cccc(C(=O)NCc3ccc(Cl)cc3)c2)cc1	i
CCOC(=O)c1sc(NC(=O)CSc2nnc(-c3ccncc3)n2CC)c(C#N)c1C	i
Cn1c(=O)c2c(nc(C#N)n2C)n(C)c1=O	i
Cc1ccccc1Oc1ccc(S(=O)(=O)NCc2ccccn2)cc1	i
S=C(NCc1cccc(Oc2ccccc2)c1)Nc1ccccc1	16.6%
COc1ccccc1NC(=O)C(C)Oc1cccc(C)c1C (stereo not given)	11.0%
Cc1ccccc1C(=O)Nc1ccc(Cl)c(C(=O)OC(C)C)c1	0.6%
COc1ccc(OC(C)C(=O)N2CCN(c3cccc(Cl)c3)CC2)cc1 (stereo not given)	4.8%
CCCC(=O)Nc1ccc(NC(=S)NC(=O)c2cccc(OCC)c2)cc1	i
Cc1nc(Sc2ccc([N+](=O)[O-])cn2)nc2c1CCCC2	i
CCn1nc(C)c(NC(=O)Nc2ccc(C(C)=O)cc2)c1C	i
Cc1c(NC(=O)C(C)Sc2ccccc2)c(=O)n(-c2ccccc2)n1C (stereo not given)	i
O=C1NC(=S)N(c2ccc(Cl)cc2)C(=O)/C1=C/c1cccn1-c1ccccc1	19.2%
Cc1ccc(S(=O)(=O)NC(=O)NCCc2c[nH]c3ccccc23)cc1	i
Cc1ccc(NC(=O)C(C)N2C(=O)C3CC=C(Cl)CC3C2=O)cc1 (stereo not given)	i
Cc1nnc(NC(=O)Cc2c(F)cccc2Cl)s1	i
Cc1sc2ncnc(SCC(=O)Nc3ccc4c(c3)OCO4)c2c1C	i
CC1(C)CC(=O)C2=C(C1)N(c1ccccc1)C1=C(C(=O)CC(C)(C)C1)C2c1ccc(O)cc1	4.0%
CC1(C)CC(=O)C2=C(C1)Nc1nc(SCc3ccc([N+](=O)[O-])cc3)[nH]c(=O)c1C2c1cccc(O)c1 (stereo not given)	i
C=CCn1c(SCc2csc(C)n2)nc2sc3c(c2c1=O)CCCCC3	i
c1ccc(Nc2nc(N3CCCC3)nc(N3CCNCC3)n2)cc1	6.7%
CC(=O)Nc1ccc(NC(=O)c2ccccc2N(C)S(C)(=O)=O)cc1	i
O=C(Nc1ccccc1[N+](=O)[O-])c1cc2c(s1)CCCC2	i
Cc1ccc(C(=O)Nc2ccccc2C(=O)N2CCC(C)CC2)cc1S(=O)(=O)N1CCCCC1	i
O=C(OCc1ccc(Br)cc1)c1cccc(Cl)c1	i
CCCC(C)C(=O)Nc1ccc(Br)cc1F (stereo not given)	1.4%
COc1ccc(OC)c(N(CC(=O)Nc2cc(C(F)(F)F)ccc2Cl)S(=O)(=O)c2ccc(OC)c(OC)c2)c1	i
O=C(Nc1cccc(S(=O)(=O)N2CCOCC2)c1)c1cnn2c(C(F)F)cc(-c3ccccc3)nc12	0.4%
Nc1ncnc2c1[nH]c(=S)n2CCOc1cccc2ccccc12	10.9µg/mL*
Cc1cc(F)c(F)c(C(=O)N2CCc3ccccc3C2)c1Cl	i
CCOc1ccc(Nc2oc(-c3ccc(OCC)cc3)nc2C#N)cc1	i
COc1ccc(C(NC(=O)c2cccc(F)c2)c2ccccc2)cc1 (stereo not given)	i
Cc1oc2ccc(O)cc2c1C(=O)OC(C)C	10.8%
CC1(C)CC2CC(C)(CN2C(=O)c2ccc(NC(=O)c3ccc(Cl)cc3Cl)cc2)C1 (stereo not given)	5.2%
Cc1ccc(-c2cc(C(=O)Nc3cccnc3)no2)cc1	3.6%
Cc1ccc(C(=O)NCc2ccc3c(c2)OCO3)o1	i
CC1(C)CC(CNCCC(c2ccccc2)c2ccco2)CCO1 (stereo not given)	1.1%
N#Cc1ccccc1CSc1nc2ccc(NC(=O)COc3ccccc3)cc2s1	i
O=C(Cc1ccc(Br)cc1)Nc1ccc(S(=O)(=O)NCCc2ccccc2)cc1	8.7%
O=C(CSc1nc2ccccc2c(=O)[nH]1)Nc1cccc([N+](=O)[O-])c1	i

(more compounds)
SMILES	Mtb growth
COc1ccc(N(CC(=O)Nc2ccccc2C(N)=O)S(C)(=O)=O)c(OC)c1	i
COc1ccc2c(Cl)c(C(=O)Nc3ccc(Br)cc3)sc2c1Cl	0.5%
CCOc1ccc(N(CC(=O)Nc2ccccc2CC)S(=O)(=O)c2ccc(OC)c(OC)c2)cc1	i
Fc1ccc(N2CCN(Cc3cn4ccccc4n3)CC2)cc1	i
Cc1sc(NC(=O)COc2ccccc2)c(C(=O)NCc2cccnc2)c1C	i
CC(C)C(=O)Nc1cccc(NC(=O)c2ccc(COc3ccccc3)cc2)c1	i
COc1cccc(NC(=O)Nc2ccc(Cc3ccncc3)cc2)c1	i
CCOC(=O)c1cc(-c2ccccc2)sc1NC(=S)NCc1cc(C)n(C)n1	i
NC(=O)c1sc2nc3c(c(-c4ccc(Cl)cc4)c2c1N)CCCC3	i
O=C(Nc1ccc(Nc2ccccc2)cc1)c1c(Cl)cccc1Cl	i
COc1ccc2oc(=O)c(C(=O)NCCC3=CCCCC3)cc2c1	i
CCCCC(=O)Nc1cc(Cl)ccc1C	i
CC(C)C(NC(=O)Cc1ccccc1)C(C)C	0.3%
COc1ccc(OC)c(NS(=O)(=O)c2ccc(C(=O)O)cc2)c1	i
CCOC(=O)c1ccc(NC(=S)N2CCCC(C)C2)cc1 (stereo not given)	i
COc1ccc(OCCn2c(C)nc3ccccc32)cc1	i
CSc1nc2ccccc2n1C(=O)c1cccs1	0.5%
COc1ccc(NC(=O)C(Cc2c[nH]c3ccccc23)NC(C)=O)cc1 (stereo not given)	3.08µg/mL*
CN(C)CCNc1nc(-c2cccnc2)nc2ccccc12	i
CC(=O)Oc1cccc2ccc(/C=C/c3cccs3)nc12	1.14µg/mL*
Cc1cccc(-c2nnc(SCC(=O)Nc3ccccc3F)o2)c1	2.8%
COC(=O)c1sc2cc(NC(=S)Nc3cccc(NC(C)=O)c3)ccc2c1Cl	i
C=CCn1c(SCC(=O)Nc2c(C)cc(I)cc2C)nnc1-c1ccccc1C	i
CCOC(=O)c1c(NC(=O)c2ccccc2C)sc(C)c1-c1ccc(OC)c(OC)c1	44.6%
COc1cc(C)ccc1OCCOc1ccc(F)cc1	3.9%
CCOc1c2ccccc2nc2ccccc12	10.6%
COc1ccc(S(=O)(=O)N(CC(=O)Nc2cccc(SC)c2)c2ccccc2)cc1OC	i
CCN1C(=O)C(CC(=O)NCc2ccc(Cl)cc2)N(CC)C1=O (stereo not given)	i
O=C(O)C1CCCN1C(=O)NC1CCCCC1 (stereo not given)	i
Cc1ccc(Cl)cc1N1CCN(C(=O)CN(c2ccccc2Cl)S(C)(=O)=O)CC1	7.9%
COc1cccc(CNn2cn[nH]c2=S)c1OCc1ccccc1	i
CC(C)(C)NS(=O)(=O)Nc1ccccc1	1.6%
CC(=O)c1cccc(NC(=O)Nc2cc(C(F)(F)F)ccc2Cl)c1	i
C=CCNCCOCCOc1ccccc1-c1ccccc1	i
COc1ccc(N(NS(=O)(=O)O)C(=O)c2ccc(Cl)cc2)cc1	4.3%
COC(=O)c1ccccc1OCCCN(C)C	i
Cc1cccc(C)c1OCc1nnc2c3cnn(-c4ccccc4)c3ncn12	i
Cc1cc(I)ccc1NS(=O)(=O)c1cccs1	i
O=C(COC(=O)c1ccc2c(c1)OCCO2)c1ccccc1	i
O=C(Cn1nc(-c2ccc(Cl)cc2)c2ccccc2c1=O)N1CCN(Cc2ccccc2)CC1	i
O=S(=O)(Cc1ccccc1)Nc1ccc(F)cc1	i
Cc1ccc(Cl)cc1N1CCN(C(=O)C(C)Sc2ccccc2)CC1 (stereo not given)	i
O=C(CC(c1ccccc1)C1CCCCC1=O)c1ccco1 (stereo not given)	2.7%
COc1nnc(-c2ccc(C)c(S(=O)(=O)NC3CCCCC3)c2)c2ccccc12	i
Cc1ccc(S(=O)(=O)N2C(=O)CCC2C(=O)Nc2ccc(Cl)c(Cl)c2)cc1 (stereo not given)	i
O=S(=O)(Nc1ccc(F)c(Cl)c1)c1ccc(Cl)cc1	i
CCOc1c(Cl)cc(C(=O)Nc2ccc(NC(C)=O)cc2)cc1Cl	i
Cc1ccc2oc(-c3ccccc3C(=O)O)cc(=O)c2c1	i
O=C(Cc1ccc(Cl)cc1)Nc1ccc(C(=O)Nc2ccc([N+](=O)[O-])cc2)cc1	1.0%
